From PubChem
HTT prom inh = HTT promoter inhibition. 48,000 tested, 0.93% active. AID 1508623. HEK293 HTT promoter firefly luciferase reporter (activity 0% = vehicle and -100% = no light), 24 h. Potency, µM (titrated, usually from 57.5 µM), without a hit: at the top dose activity change, negative = inhibition, actives largely listed as inhibitors; active means well fitted inhibition curve with a large enough effect; inconclusive means small, poorly fitted or top-dose-only effect; inactive means no such curve, though single readings can be large or run the other way; further: nearly all actives have a fitted effect of over 50% in size
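Luminescence was read after Dual-Glo reagent and a 10 min room-temperature incubation. Values were normalized to vehicle (0% activity) and zero RLU (-100% activity). Reporter HEK293 cells had been exposed to compounds (up to 57.5 uM final) for 24 h.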
PMP22 txn = modulates PMP22 transcription in S16 Schwann cells | S16 Pmp22-F2sN Schwann cells (luciferase reporters placed in the Pmp22 gene), FLuc/NLuc coincidence luminescence, 24 h | Potency, µM (top dose mostly 57.5 µM), inactives show top-dose activity change, negative = inhibition, hits mostly inhibitors | 43,000 tested, 2% active | AID 1508649; active = clear falling dose curves in both reporters; inconclusive = both reporters move, but less clearly or upward; inactive = either reporter flat; the % is the NLuc reporter signal; further: on the % scale 0 is the no-effect control and ±100 the full control effect; some results filed as inactive show a strong effect at the top dose
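S16(c9) Schwann cells with FLuc/NLuc coincidence reporter in the Pmp22 3' UTR; compounds pin-transferred, 24 h at 37C. Dual-luciferase read: FLuc first, then NLuc after Stop&Glo, each 10 min at room temperature.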
Numbers without * were called inactive; ? = inconclusive; . = no result given; & = joins results of further samples; [ ] = another dose, or the depositor's remark. Potency means the concentration at half of the fitted maximal effect.

Every second line gives: HTT prom inh	PMP22 txn
1	CCOC(=O)c1ccc(NC2=CC(c3ccc(Br)cc3)N(c3ccc(C(=O)OCC)cc3)C2=O)cc1 (stereo not given)
 : -6%	8%
2	CCCN(CCC)C(=O)Cn1c(=O)n(-c2ccc(CC)cc2)c(=O)c2ccc(C(=O)NCCc3ccccc3)cc21
 : -16%	?
3	COc1cccc(CNC(=O)C2CCN(C(=O)c3cnn(-c4ccccc4)c3-n3cccc3)CC2)c1
 : ?	?
4	CC(C)NC(=O)c1ccc(Cn2c(SCC(N)=O)nc3ccccc3c2=O)cc1
 : -2%	-18%
5	CC(=O)c1cccc(NC(=O)C2CCN(c3nnc(-n4cccc4)s3)CC2)c1
 : -20%	14%
6	CCOc1nc(NC(=O)NS(=O)(=O)Oc2cccc(Cl)c2)nc(-c2ccccc2)n1
 : 45%[activator]	-3%
7	COc1cccc(C(=O)NCC(c2ccc3c(c2)OCO3)N2CCOCC2)c1 (stereo not given)
 : -5%	7%
8	CCc1ccc(NC(=O)c2cnc3sc(N4CCCC4)nn3c2=O)cc1
 : ?	0%
9	Cc1cc(NC(=O)CN2CCC(O)CC2)nc2c1c(=O)oc1ccccc12
 : 3%	?
10	Cc1cc(C)cc(NC(=O)[C@H]2O[C@@H]3OC(C)(C)O[C@@H]3[C@H]3OC(C)(C)O[C@H]32)c1
 : 5%	?
11	COc1ccc(Cl)cc1NC(=O)Cn1c(=O)n(Cc2cccs2)c(=O)c2cccnc21
 : -16%	?
12	CCOC(=O)c1sc(NC(=O)C2c3ccccc3Oc3ccccc32)c(C(=O)OCC)c1C
 : -39%	-30%
13	Cc1sc2c(c1C)c(=O)n(CCc1ccccc1)c(=O)n2Cc1ccc(C(C)(C)C)cc1
 : -4%	4%
14	CCOc1ccccc1CNC(=O)CCn1ccc2cc(S(=O)(=O)N3CCC(C)CC3)ccc21
 : ?	?
15	O=S(=O)(c1ccccc1)c1nnn2c1nc(N1CCN(c3ccccc3)CC1)c1cc(Cl)ccc12
 : 8%	8%
16	Cc1ccc(C)c(CNC(=O)c2sc3ncnc(N(C)C4CCCCC4)c3c2C)c1
 : -13%	-23%
17	CCN(C(=O)C(Cc1ccccc1)NS(=O)(=O)c1cccc2nsnc12)c1ccccc1 (stereo not given)
 : -31%	-4%
18	CCN(CC)C(=O)Cn1c(=O)n(CCCCCC(=O)NCc2ccccc2Cl)c(=O)c2sccc21
 : -9%	?
19	CCOc1ccc(CC(=O)Nc2c(C(=O)c3ccc(F)cc3)oc3ccc(Cl)cc23)cc1OCC
 : 5%	-13%
20	CCOC(=O)Cn1c(=O)n(CC2CCCO2)c2nc(-c3c(F)cccc3Cl)nc(C(N)=O)c21 (stereo not given)
 : -17%	6%
21	N#Cc1ccc(-c2cccs2)nc1SCc1ccc(Cl)cc1Cl
 : -11%	-29%
22	CNC(=O)CSc1cn(CC(=O)N2CCCCCC2)c2ccccc12
 : -10%	-11%
23	Cc1ccc(-c2nc(NC(=O)CSc3ccc4ccccc4n3)ns2)cc1
 : 7%	-20%
24	COc1ccc(-c2cc(C(F)(F)F)n3nc(C(=O)Nc4sc5c(c4C(=O)OC(C)C)CCC(C)C5)cc3n2)cc1 (stereo not given)
 : 2%	-2%
25	COc1ccccc1N1CCN(S(=O)(=O)c2ccc(F)c(C(=O)Nc3ccc(C)c(F)c3)c2)CC1
 : ?	28%
26	Cc1ccccc1Cn1c2ccccc2c2cnn(CC(=O)NCc3cccc(Cl)c3)c(=O)c21
 : -24%	?
27	COCCCNC(=O)Cn1c(=O)n(Cc2ccc(C(=O)NCc3ccc(C)cc3)cc2)c(=O)c2ccccc21
 : 3%	-1%
28	COc1ccc(Cl)cc1NC(=O)Nc1c[nH]c(=O)[nH]c1=O
 : 10%	-12%
29	O=C(Cn1c(=O)n(-c2ccccc2)c(=O)c2sc3ccccc3c21)N1CCCC1
 : 5%	-3%
30	Cc1ccccc1C(=O)N1CC(=O)Nc2ccc(Cl)cc2C1c1ccccc1 (stereo not given)
 : -26%	11%
31	CCN(CC)c1ccc(C2C(C(N)=O)=C(C)Nc3nc(SCc4ccccc4)nn32)cc1 (stereo not given)
 : ?	-16%
32	CCOc1ccc(CNS(=O)(=O)c2ccc3c(c2)CC(C)N3C(C)=O)cc1OC (stereo not given)
 : -15%	?
33	COc1ccc(NC(=O)CN2C(=O)CC(c3ccco3)Sc3ccccc32)cc1OC (stereo not given)
 : ?	?
34	Nc1c(C(=O)Nc2cccc(F)c2)nnn1-c1cccc(C(F)(F)F)c1
 : 32%	3%
35	CCC(C(=O)Nc1cc(OC)cc(OC)c1)n1nc(-c2ccc(C)c(C)c2)ccc1=O (stereo not given)
 : ?	?
36	CN(C(=O)CSc1nc2ccc(NC(=O)c3ccco3)cc2s1)c1ccccc1
 : ?	?
37	CCN1CCN(Cc2nc3cc(NC(=O)c4cc(OC)c(OC)c(OC)c4)ccc3n2CC)CC1
 : 2%	12%
38	Nc1ccc(/C=C/c2ccc(N)cc2S(=O)(=O)O)c(S(=O)(=O)O)c1
 : -3%[0.739 µM]	.
39	CCN(C(=O)C1CCC(CNS(=O)(=O)c2cccc3nsnc23)CC1)c1cccc(C)c1 (stereo not given)
 : ?	?
40	O=C(Cn1c(=O)n(-c2ccc(Cl)cc2)c(=O)c2c3c(sc21)CCC3)c1ccc(F)cc1
 : 3%	-14%
41	CC(=O)c1ccc(N2CCN(c3ncnc4c3c(-c3ccccc3)cn4-c3ccc(C)c(Cl)c3)CC2)cc1
 : -19%	12%
42	COc1ccc(N2CC(NC(=O)c3ccc(S(=O)(=O)N4CCCCC4)cc3)CC2=O)cc1 (stereo not given)
 : -30%	-4%
43	Cc1ccccc1N1CC(C(=O)Nc2ccc(Br)cc2)CC1=O (stereo not given)
 : -20%	0%
44	CCCCOC(=O)c1ccc(O)cc1
 : 8%	.
45	C=CC(=O)N1CCC[C@@H](n2nc(-c3ccc(Oc4ccccc4)cc3)c3c(N)ncnc32)C1
 : -1%	.
46	Cc1ccc(Nc2ncnc3c2cnn3-c2ccccc2)c(C)c1
 : 23%	?
47	O=C1CS(=O)(=O)C2(C(=O)N(Cc3ccccc3)c3ccccc32)N1c1ccccc1 (stereo not given)
 : -11%	20%
48	CC(O)COc1ccccc1 (stereo not given)
 : 9%	.
49	CCOc1cc(C(=O)NCCc2csc3nc(-c4ccc(C)cc4)nn23)cc(OCC)c1OCC
 : -16%	-22%
50	COc1ccc(NC(=O)CC2C(=O)N(c3cccc(C)c3)C(=O)N2C2CCCCC2)cc1 (stereo not given)
 : -29%	-8%
51	Nc1c(-c2nc(-c3ccccc3Cl)no2)nnn1-c1ccccc1C(F)(F)F
 : 24%	-11%
52	CCCSc1ncc(Cl)c(C(=O)Nc2ccc(CC)cc2)n1
 : -14%	-2%
53	COc1cc(OC)c(NC(=O)c2cc(CN3CCOCC3)on2)cc1Cl
 : 2%	2%
54	Cc1ccc(-c2noc(-c3ccccc3NC(=O)C3CC(=O)N(c4ccccc4C)C3)n2)cc1 (stereo not given)
 : 30%	1%
55	CCOC(=O)c1cc2c(=O)n3ccccc3nc2n(C)c1=NC(=O)c1cc2ccccc2o1
 : -18%	-5%
56	COc1ccc(-n2cc(C(=O)OCc3ccc(Cl)cc3)c3ccccc3c2=O)cc1
 : 11%	-18%
57	CCc1ccc(NC(=O)CSc2nc3c(sc4ccccc43)c(=O)n2CCN(CC)CC)cc1
 : -10%	?
58	COc1ccc(NC(=O)C(=O)NCCc2sc(-c3ccc(Cl)cc3)nc2C)cc1
 : 5%	-6%
59	O=C(Nc1ccccc1)N(Cc1cccc(Cl)c1)c1ccccn1
 : -12%	-35%
60	Cn1c(=O)[nH]c2cc(-c3noc(-c4ccc(Br)cc4)n3)ccc21
 : -5%	8%

More records
Every second line gives: HTT prom inh	PMP22 txn
61	CN(C)c1ccc(CNC(=O)c2ccc(Cn3c(=O)c4cccn4c4cccnc43)cc2)cc1
 : -8%	1%
62	CC1CCCN(Cc2nc3c(c(=O)n(C)c(=O)n3C)n2Cc2ccc(Cl)cc2Cl)C1 (stereo not given)
 : -8%	-6%
63	CCc1ccc2oc(C(=O)Nc3nc(-c4ccccc4)ns3)c(C)c2c1
 : 2%	16%
64	Cc1ccc(N(Cc2cccs2)C(=O)Nc2cccc(Cl)c2)cc1
 : -13%	9%
65	COc1ccc(NC(=O)NC(C)c2c(-n3cccc3)sc(C)c2C)cc1OC (stereo not given)
 : ?	5%
66	CC(C)CCNc1nc(Nc2ccccc2)c2cnn(C)c2n1
 : -22%	-34%
67	COc1cccc(-n2c(-c3ccccc3F)nc3c(cnn3-c3ccc(C)cc3)c2=O)c1
 : ?	?
68	COc1ccc(-c2nn(C)c3sc(C(=O)Nc4cccc(F)c4)cc23)cc1OC
 : ?	?
69	COC(=O)CSc1ccc2nnc(CCNS(=O)(=O)c3ccc(C)cc3)n2n1
 : 0%	-1%
70	Cc1ccc(-n2ncc3c(Nc4ccccc4C)ncnc32)cc1
 : 64%[activator]	-3%
71	CC(C)c1ccc(NC(=O)CSC2=Nc3ccccc3C3=NC(CC(=O)NC4CCCCC4)C(=O)N23)cc1 (stereo not given)
 : ?	?
72	CC(C)[N+]1(C)[C@@H]2CC[C@H]1CC(OC(=O)C(CO)c1ccccc1)C2 (stereo not given in full)
 : 11%	.
73	CCOc1cc(-c2ccc(OC(=O)c3ccc(Cl)cc3)c(OC)c2)cc(=O)c2c(C)oc(C)c12
 : 12%	?
74	Cc1ccc(-c2nn3c(-c4ccccc4C)nnc3c3ccccc23)cc1
 : ?	-24%
75	CCCCCn1c(=O)[nH]c2cc(C(=O)N3CCN(c4cccc(C(F)(F)F)c4)CC3)ccc2c1=O
 : ?	-27%

Reprinted at random: four records from the list, in no set order.
Every second line gives: HTT prom inh	PMP22 txn
63	CCc1ccc2oc(C(=O)Nc3nc(-c4ccccc4)ns3)c(C)c2c1
 : 2%	16%
73	CCOc1cc(-c2ccc(OC(=O)c3ccc(Cl)cc3)c(OC)c2)cc(=O)c2c(C)oc(C)c12
 : 12%	?
64	Cc1ccc(N(Cc2cccs2)C(=O)Nc2cccc(Cl)c2)cc1
 : -13%	9%
70	Cc1ccc(-n2ncc3c(Nc4ccccc4C)ncnc32)cc1
 : 64%[activator]	-3%

(cont.)
Every second line gives: HTT prom inh	PMP22 txn
76	COc1ccccc1-c1c(C(F)(F)F)oc2c(CN3CCCCC3C)c(O)ccc2c1=O (stereo not given)
 : -6%	10%
77	COc1ccc(C2CC(=O)N3CN(C4CCCCC4)CSC3=C2C#N)c(OC)c1 (stereo not given)
 : -10%	-12%
78	Cc1cc(C(=O)NCc2ccccc2Cl)c2c(C)nn(-c3cccc(F)c3)c2n1
 : -24%	-20%
79	COC(=O)CCc1ccc(OCC(O)CNC(C)C)cc1 (stereo not given)
 : 0%	.
80	Cc1ccc2c(c1)C(=O)[C@]1(O)CCN(c3ccccc3)C1=N2
 : -6%	.
81	Cc1nc2n(c(=O)c1CCN1CCC(c3noc4cc(F)ccc34)CC1)CCCC2
 : 4%&-8%	.
82	Cc1ccc(C(C)C)c(OCCSc2nc3ccccc3n2CC(O)CO)c1 (stereo not given)
 : ?	?
83	CC(C)OC(=O)c1c(-c2ccccc2)c(-c2ccccc2)nn(C)c1=O
 : ?	4%
84	COC(=O)c1ccccc1NC(=O)Cn1nnc2sc(-c3ccccc3)cc2c1=O
 : 6%	-17%
85	COc1cccc(C(=O)N2CCc3c([nH]c4ccccc34)C2c2ccc(SC)cc2)c1 (stereo not given)
 : -21%	11%
86	Cc1cccc(C(c2sc3nc(-c4ccco4)nn3c2O)N2CCN(c3ccccc3)CC2)c1 (stereo not given)
 : 4%	29%
87	O=C(O)CCC(=O)Nc1ccc(S(=O)(=O)Nc2nccs2)cc1
 : -8%	.
88	CCOc1ccc(CNC(=O)C2Cc3cc(S(=O)(=O)N4CCCCCC4)ccc3N2C(C)=O)cc1 (stereo not given)
 : -10%	?
89	Cc1cc(S(=O)(=O)N2CCN(Cc3noc(CCC(=O)N4CCCCC4)n3)CC2)ccc1F
 : -29%	4%
90	CCN(CC)S(=O)(=O)c1ccc2c(c1)N(CC(=O)Nc1c(C)cccc1C)C(=O)C1CCCN21 (stereo not given)
 : -17%	-16%

In a second layout: entries from further up
46) Cc1ccc(Nc2ncnc3c2cnn3-c2ccccc2)c(C)c1
  HTT prom inh: 23%
  PMP22 txn: ?

47) O=C1CS(=O)(=O)C2(C(=O)N(Cc3ccccc3)c3ccccc32)N1c1ccccc1 (stereo not given)
  HTT prom inh: -11%
  PMP22 txn: 20%

48) CC(O)COc1ccccc1 (stereo not given)
  HTT prom inh: 9%
  PMP22 txn: .

(more compounds)
Every second line gives: HTT prom inh	PMP22 txn
91	CCC(=O)N1CCc2cc(S(=O)(=O)CCC(=O)NCc3ccc(OC)cc3)ccc21
 : -1%	-27%
92	CCC(=O)N1CCc2cc(Br)cc(S(=O)(=O)CCC(=O)Nc3cccc(CC)c3)c21
 : -5%	4%
93	CC(C)(C)C(=O)Nc1ccc2nc(SCC(=O)N3CCOCC3)sc2c1
 : 0%	1%
94	CCn1c(=O)c2cc(C(=O)NCCCN3CCC(C)CC3)sc2c2ccccc21
 : 38%[activator]	?
